High-throughput results (PubChem)
FGF22 binding: shifts melting point of recombinant human FGF22; actives 1.5% (n = 340,000); recombinant FGF22 thermal shift, SYPRO orange fluorescence; percent of sucrose octasulfate shift, DMSO zero; AID 651658; calls only at 9.99 µM; Q9HCT0;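 active means melting point raised past a set limit in the mean and every replicate; inconclusive means no clear call; three in four hits are not shown here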
Target sequence (Q9HCT0 whole entry, looked up): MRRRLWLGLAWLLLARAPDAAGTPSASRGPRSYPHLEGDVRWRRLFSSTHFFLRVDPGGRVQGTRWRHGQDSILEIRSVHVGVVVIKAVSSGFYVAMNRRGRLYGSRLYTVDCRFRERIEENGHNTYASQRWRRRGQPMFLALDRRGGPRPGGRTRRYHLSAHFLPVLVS
Ecoli rRNA inh: selective bacterial rRNA inhibition in E. coli. E. coli WT GFP vs humanized-ribosome RFP mutants, fluorescence, 24 h; stronger effect = lower value; DMSO median 0, no signal -100. actives 1.6% (n = 350,000). GFP signal change (wild-type ribosome), % (test concentration not listed);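 active means significant combined selectivity score with lowered wild-type GFP, culture density cut under 30%, mutant RFP and density less affected; inactive means any of these conditions unmet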; further: one replicate is shown; some compounds called inactive have numbers as strong as hits
Beta2AR agonist: agonists of human beta-2 adrenergic receptor inducing internalization; P07550; actives 0.43% (n = 340,000); AID 504454; Am2.2-beta2AR cells, FAP receptor internalization, flow cytometry; reference of the scale not given here; response, % (test concentration not listed);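 active means response above a set limit, near 3 SD of response in nonfluorescent compounds, cut at about 42% in these data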;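 further: stock transfer was 100 nL into about 11 µL; a reference agonist was the positive control; negative values mostly stem from fluorescent compounds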
Target sequence (P07550 whole entry, looked up): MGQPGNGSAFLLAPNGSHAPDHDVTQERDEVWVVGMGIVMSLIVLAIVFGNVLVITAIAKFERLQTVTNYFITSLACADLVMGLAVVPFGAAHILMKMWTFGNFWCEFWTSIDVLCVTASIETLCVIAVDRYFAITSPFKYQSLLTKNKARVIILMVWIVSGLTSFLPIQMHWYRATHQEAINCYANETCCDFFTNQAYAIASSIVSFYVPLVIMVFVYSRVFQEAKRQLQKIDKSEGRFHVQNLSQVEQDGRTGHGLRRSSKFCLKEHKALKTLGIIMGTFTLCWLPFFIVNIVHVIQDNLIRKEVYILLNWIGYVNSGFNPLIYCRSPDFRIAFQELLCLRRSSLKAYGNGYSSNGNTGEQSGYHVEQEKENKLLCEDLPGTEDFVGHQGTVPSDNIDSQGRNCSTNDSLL
HNF4A DNA FP: change in binding of human HNF4 alpha to DNA; P41235; HNF4a-FITC DNA binding, fluorescence polarization, 1 h; activity change, % at 10 µM; actives 0.3% (n = 360,000); AID 1224865; in the data active means activity change above about 30%, passing the limit was not always enough;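 further: controls were the assay level and a saturating level of protein; the project sought stronger binding though the title names inhibitors; some compounds called inactive have numbers as strong as hits; positive values seem to mean higher polarization but the record does not say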
UCH37 DUB inh: human UCH37 deubiquitinating enzyme inhibition. Q9Y5K5. AID 588478. actives 0.33% (n = 330,000). purified proteasome/UCH37, Ub-AMC cleavage fluorescence. inhibition, % (concentration not given with the values);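 active means mean of two replicates above 20%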;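 further: 0% = compound-free wells with enzyme and 100% = wells lacking proteasome; stock transfer was 100 nL into about 20 µL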
Target sequence (Q9Y5K5 whole entry, looked up): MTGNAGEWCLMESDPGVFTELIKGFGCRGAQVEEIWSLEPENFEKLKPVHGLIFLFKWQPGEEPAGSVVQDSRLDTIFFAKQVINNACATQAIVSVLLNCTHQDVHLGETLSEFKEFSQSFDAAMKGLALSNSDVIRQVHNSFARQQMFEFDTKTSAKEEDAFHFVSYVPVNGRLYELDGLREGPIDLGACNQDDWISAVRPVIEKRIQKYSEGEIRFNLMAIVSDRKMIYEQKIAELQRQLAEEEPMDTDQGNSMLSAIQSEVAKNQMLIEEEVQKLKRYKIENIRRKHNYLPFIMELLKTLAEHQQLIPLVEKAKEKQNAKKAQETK
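System: Proteasome-associated human UCH37 deubiquitinase; Input: 0.15 nM proteasome in added enzyme buffer; Also added: Ub-AMC substrate from 1 µM stock; Incubation: 30 min compound-proteasome preincubation then 25 min substrate reaction, room temperature; Detection: fluorescence, ex 355 nm, em 460 nm; Read-out: % inhibition of Ub-AMC cleavage fluorescence; Benchmarks: no-proteasome and no-compound wells.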
E coli growth: inhibitors of Escherichia coli growth; OD600, 23 h; stronger effect = lower value; actives 0.21% (n = 330,000); OD600 absorbance (concentration not given with the values);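 active means OD600 absorbance below the run mean of sample wells minus 3.6 SD, in any replicate, cut at about 0.56 in these data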;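 further: stock transfer was 300 nL into about 60 µL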
ALR H2O2 inh: inhibitors of human sulfhydryl oxidase ALR; P55789; purified ALR, DTT oxidation, H2O2 HRP-luminol luminescence; inhibition, % (no concentration beside the values); actives 3.8% (n = 290,000); AID 485317;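 active means mean and each replicate at 75% or more; inconclusive means only one of the two met; inactive means neither met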;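 further: stock transfer was 7.5 nL into about 7.5 µL; 0% = neutral wells and 100% = wells with inactivated enzyme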
Ecoli rRNA inh OD600: second read-out of Ecoli rRNA inh, no call of its own (marks repeat the call); OD600 change, %; measured here: OD600 growth;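 optical density of the mix in the first replicate; 0 = DMSO median and -100 = no signal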
Ecoli rRNA inh RFP: further read-out of Ecoli rRNA inh, marked with its call; RFP signal change, %; measured here: RFP humanized mutant strains;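 first replicate; 0 = DMSO median and -100 = no signal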
Numbers without * were called inactive; i = inactive; ? = inconclusive; . = not tested or not shown.

Values run as follows: FGF22 binding	Ecoli rRNA inh	Ecoli rRNA inh OD600	Ecoli rRNA inh RFP	Beta2AR agonist	HNF4A DNA FP	UCH37 DUB inh	E coli growth	ALR H2O2 inh
> COc1ccc(NC(=O)Nc2cccc3ccccc23)cc1OC
    i	10	10	2.4	7	-1.9	1.0	0.69	-7
> O=C(Nc1ccccc1Cl)C1CCN(S(=O)(=O)c2cccc3nonc23)CC1
    i	5	6	-1.8	16	-0.8	-0.2	0.62	-10
> CCN(CC)C(=O)c1cn(CCC#N)nc1-c1ccc2ccccc2c1
    i	-4	-11	-2.3	0	-5.0	3.4	0.62	-5
> COc1ccc(CCNC(=O)c2ccc(OCc3c(C)noc3C)c(OC)c2)cc1
    i	23	10	2.2	1	-1.2	0.1	0.72	-2
> CC1(C)C(=O)Nc2ccccc2N1C(=O)COC(=O)Cc1c(F)cccc1Cl
    i	-10	-16	5.4	-6	-0.7	4.0	0.69	0
> Cc1noc(C)c1C(=O)OCC(=O)NCc1ccccc1
    i	-1	4	2.8	-4	-2.0	0.3	0.65	.
> Cc1ccc(S(=O)(=O)N2CCCCC2)cc1NC(=O)COC(=O)CNC(=O)c1cc(Cl)cc([N+](=O)[O-])c1
    i	.	.	.	-2	1.9	2.5	0.67	-14
> COCCN(CCOC)S(=O)(=O)c1ccc(C(=O)Nc2nnc(CSC)o2)cc1
    i	2	-3	-4.3	-14	-0.8	4.9	0.73	-6
> COC(=O)c1ccc(C(c2c(C)n(C)n(-c3ccccc3)c2=O)c2c(C)n(C)n(-c3ccccc3)c2=O)cc1
    i	9	10	9.9	-18	2.5	4.3	0.73	-8
> O=C(c1ccco1)N1CCN(C(=O)c2ccc(Br)o2)CC1
    i	10	9	4.2	.	-2.2	.	.	.
> CCCC(=O)c1cc2c(cc1NC(=O)c1cccs1)OCCO2
    .	.	.	.	-13	-2.1	-74	0.76	-1
> COCCn1nc2cc(C(=O)NCc3cc(C(F)(F)F)cc(C(F)(F)F)c3)ccc2c1OC
    i	4	-10	1.3	-6	-4.1	-39	0.65	4
> S=C(c1ccc(OCc2ccccc2)cc1)N1CCCC1
    i	-26	-31	-5.9	-25	-0.1	3.9	0.64	-5
> Cc1ccc(N2C(=O)N(CC(=O)c3cc(C)ccc3C)C(=O)C2C)cc1 (stereo not drawn)
    .	.	.	.	8	5.7	5.0	0.69	-2
> COC(=O)c1c(NC(=O)c2ccco2)sc(C(=O)N2CCCC2)c1C
    i	10	-1	1.3	-7	3.9	-14	0.71	-1
> CCCCn1c(/N=C/c2ccc(N(C)C)cc2)nc2ccccc21
    .	.	.	.	-15	49*	.	.	10
> CC(=O)Nc1cccc(Oc2cc(C#N)c(C#N)cc2N2CCCCCC2)c1
    .	.	.	.	1	-2.1	-8.0	0.75	0
> O=C(Nc1ccc(OC(F)(F)F)cc1)c1cnc2n(c1=O)CCS2
    i	0	3	-4.1	-4	3.8	2.8	0.74	4
> COc1cc(NC(=O)c2cccs2)c(C(=O)OCC(=O)NCc2ccco2)cc1OC
    .	.	.	.	0	-8.4	-7.7	0.73	7
> COc1cc(OC)c(NC(=O)c2cc(S(=O)(=O)N3CCOCC3)cn2C)cc1Cl
    i	6	5	2.2	13	-1.2	2.7	0.69	-24
> COc1cccc(CNC(=O)COC(=O)CN2C(=O)NC3(CCCCC3C)C2=O)c1 (stereo not drawn)
    i	3	1	0.5	4	-0.9	4.8	0.65	2
> CCOC(=O)C1CCCN(C2=NC(=O)/C(=C/c3ccc(OC)c(OC)c3)S2)C1 (stereo not drawn)
    i	4	6	3.0	-8	2.3	0.0	0.66	-12
> CC(C)C1OC(CCc2ccccc2)Cc2[nH][nH]c(=O)c21 (stereo not drawn)
    i	-8	-19	-5.4	.	4.1	.	.	.
> CCn1c(SCC(=O)O)nnc1-c1ccc2[nH]c(C)c(C)c2c1
    i	3	4	-3.6	3	-0.9	.	.	2
> CC(C)(C)c1ccc(-c2nc(-c3ccncc3)no2)cc1
    i	-51	-77	-28	-1	-0.2	-2.3	0.62	-5
> CCCNC(=O)C1(C)CCCN(C(=O)c2ccc(C)c(F)c2)C1 (stereo not drawn)
    i	6	9	-0.3	.	-1.3	.	.	.
> CCN(CCNC(=O)c1ccc(CSc2nc3ccncc3[nH]2)cc1)c1ccccc1
    i	-7	-5	-2.0	-7	1.6	3.9	0.73	98*
> O=C1C=CC(=O)N1Cc1ccccc1
    i	-2	5	-5.6	22	1.1	.	.	8
> CC1CCC2(CC1)NC(=O)N(CC(=O)Nc1cccc(C#N)c1)C2=O (stereo not drawn)
    i	7	17	-1.8	0	-1.7	1.8	0.72	.
> Cc1cc(C(=O)N/N=C\c2cc(C(C)(C)C)ccc2O)n[nH]1
    .	.	.	.	6	2.5	.	.	18

Sorted by value in Beta2AR agonist (ascending): some entries from above.
Structure	FGF22 binding	Ecoli rRNA inh	Ecoli rRNA inh OD600	Ecoli rRNA inh RFP	Beta2AR agonist	HNF4A DNA FP	UCH37 DUB inh	E coli growth	ALR H2O2 inh
Cc1noc(C)c1C(=O)OCC(=O)NCc1ccccc1	i	-1	4	2.8	-4	-2.0	0.3	0.65	.
CCn1c(SCC(=O)O)nnc1-c1ccc2[nH]c(C)c(C)c2c1	i	3	4	-3.6	3	-0.9	.	.	2
O=C1C=CC(=O)N1Cc1ccccc1	i	-2	5	-5.6	22	1.1	.	.	8

The list goes on:
Values run as follows: FGF22 binding	Ecoli rRNA inh	Ecoli rRNA inh OD600	Ecoli rRNA inh RFP	Beta2AR agonist	HNF4A DNA FP	UCH37 DUB inh	E coli growth	ALR H2O2 inh
> CCOc1ccc(CCNC(=O)COC(=O)c2cccc(S(=O)(=O)N3CCCCC3)c2)cc1OCC
    i	0	-7	1.6	7	-4.9	1.0	0.68	-5
> CC(C)(O)C#Cc1ccc(CN2CCC(n3nccc3NC(=O)C3CC3)CC2)cc1
    i	4	11	-1.6	13	-2.2	-0.3	0.61	1
> Cc1ccc(-c2nnn(CC(=O)N(Cc3cccs3)C(C(=O)NC3CCCC3)c3ccncc3)n2)cc1 (stereo not drawn)
    .	.	.	.	-1	4.1	3.2	0.71	-6
> CC1=C(C(=O)N(C)C)CC(CC(=O)NCCCCc2ccccc2)C(=O)N1Cc1ccc(C(C)(C)C)cc1 (stereo not drawn)
    i	-10	-42	18	.	-4.1	.	.	.
> CCS(=O)(=O)N1CCC(C(=O)Oc2ccccc2OC)CC1
    i	5	14	1.2	3	7.5	3.3	0.68	.
> CC(C)CCN1C(=O)c2ccc(C(=O)Nc3ccc(Br)cc3C(=O)O)cc2C1=O
    i	-41	-50	-3.0	3	-6.2	3.2	0.66	60
> O=C(c1cccc2ccccc12)N1CCN(c2ccccc2F)CC1
    .	.	.	.	-6	-0.5	4.6	0.71	.
> CCOc1ccccc1N(CC(=O)NCCSc1ccccc1)S(C)(=O)=O
    i	4	0	1.9	6	-0.3	4.4	0.73	-2
> Cc1ccccc1-c1nn2c(-c3ccccc3)nnc2s1
    .	.	.	.	-6	-2.2	-0.2	0.72	-3
> S=C(NCc1cccs1)Nc1cccc2ccccc12
    i	-22	-18	-12	3	-2.3	2.0	0.71	-23
> CCc1cc(=O)oc2cc(OCC(=O)NCCCn3ccnc3)ccc12
    i	6	8	2.7	4	-1.5	-12	0.69	0
> CC(=O)N1c2ccc(S(=O)(=O)N3CCC(C(=O)Nc4cc(C)cc(C)c4)CC3)cc2CC1C (stereo not drawn)
    i	-3	-8	-0.5	2	3.1	2.9	0.68	-1
> Cc1ccc(S(=O)(=O)N2[C@H](c3ccccc3)CC(=O)[C@@H]3CN(S(=O)(=O)c4ccccc4C)[C@H](c4ccccc4)C[C@@H]32)cc1
    i	34	26	3.9	.	1.1	.	.	.
> Cc1ccc(NC(=O)c2cc(N3C(=O)C4CCCCC4C3=O)ccc2N2CCOCC2)cc1 (stereo not drawn)
    i	-12	-18	1.5	6	0.9	3.1	0.71	-1
> CC(=O)Nc1ccc(NC(=O)CSc2nccn2Cc2ccco2)cc1
    i	.	.	.	-10	-0.9	2.5	0.67	?
> O=C(O)c1ccccc1-c1nc2ccccc2n1-c1ccccc1
    .	.	.	.	4	-2.6	0.6	0.72	10
> CC(C)(C)OC(=O)C[C@H]1C/C=C\C[C@@H](CC(=O)NCCO)C(=O)N[C@H](Cc2ccccc2)COC1=O
    i	1	-7	0.8	-2	0.6	-1.3	0.71	.
> CCC(=O)N1CCc2cc(S(=O)(=O)NC(C(=O)NCc3ccc(C)cc3)C(C)C)ccc21 (stereo not drawn)
    .	.	.	.	-2	-3.5	-0.6	0.73	0
> Cc1ccc(CNC(=O)c2cc3c(s2)CN(Cc2ccccc2)C3)cc1
    i	-1	11	-0.2	2	3.7	-0.6	0.72	2
> CCN(CC)S(=O)(=O)c1ccc(N2CCCCC2)c(NC(=O)c2ccncc2)c1
    i	-24	-34	-11	2	2.9	0.9	0.7	-7
> COc1ccc(OC)c2nc(-c3ccc4c(c3)OCO4)ccc12
    i	-19	-28	-4.1	15	-1.5	-95	0.64	.
> COc1ccc(NC(=O)O/N=C/c2ccncc2)cc1
    i	15	13	-0.6	2	1.2	.	.	-26
> Cc1ccc(S(=O)(=O)N/N=C/c2cn(C)nc2C)cc1
    .	.	.	.	-11	-0.4	.	.	?
> Cc1ccc(C(=O)OC2CCOC2=O)cc1NC(=O)c1ccco1 (stereo not drawn)
    .	.	.	.	2	0.5	5.2	0.7	.
> Cc1cccc(OCCOC(=O)C2CCN(S(=O)(=O)c3ccc(C)c(C)c3)CC2)c1
    i	5	-3	-0.8	0	-0.3	4.0	0.69	-1
> Cc1cc(=O)oc2cc(OCC(=O)Nc3nnc(C4CC4)s3)ccc12
    i	-3	3	-8.3	4	2.4	-2.2	0.73	0
> CCN(CC)C(=O)CSc1nc2ccccc2c(=O)n1CCC(=O)NCc1ccc(F)cc1
    .	.	.	.	-7	0.0	1.3	0.71	-5
> CC(C)CC(c1nnnn1C1CCCCC1)N1CCN(C(=O)c2ccco2)CC1 (stereo not drawn)
    i	-2	0	-3.8	-8	2.5	2.3	0.66	.
> NS(=O)(=O)c1ccc(NC(=S)NC2CCCC2)cc1
    .	.	.	.	-2	-0.2	-0.8	0.68	8
> COc1cccc(NS(=O)(=O)c2ccc(S(=O)(=O)N3CCCC3)cc2)c1
    i	1	-18	-0.6	17	-1.3	3.8	0.71	-7

Values run as follows: FGF22 binding	Ecoli rRNA inh	Ecoli rRNA inh OD600	Ecoli rRNA inh RFP	Beta2AR agonist	HNF4A DNA FP	UCH37 DUB inh	E coli growth	ALR H2O2 inh
> CCN(CC)CCN(C(=O)c1ccc([N+](=O)[O-])cc1)c1nc2ccc(OC)cc2s1
    i	-6	-2	-5.7	9	0.0	6.0	0.68	-1
> CC(C)c1csc(CN2CCN(Cc3ccccc3)C(CCO)C2)n1 (stereo not drawn)
    i	-8	-1	3.6	3	0.5	0.0	0.67	2
> N=c1c(C(=O)NCc2ccco2)cc2c(=O)n3ccccc3nc2n1C1CCCC1
    i	1	-1	0.5	8	-5.8	-216	0.7	-1
> COc1ccc(N(C)S(=O)(=O)c2cccc(C(=O)N(C)Cc3ccc(C)o3)c2)cc1
    .	-20	-22	-4.6	-3	-5.1	3.8	0.68	-1
> N#Cc1cc2ccncc2c2ccccc12
    i	4	10	-7.3	.	0.2	.	.	.
> O=S(=O)(NCc1ccc2c(c1)OCO2)c1ccc(F)c(F)c1
    i	-3	-5	-2.5	12	1.2	1.8	0.65	-12
> NC(=O)c1cc(Br)cc(C2CCCCC2)c1O
    i	-56	-78	-28	17	-1.2	-31	0.63	92*
> Cc1cc(C)cc(NC(=O)C2C3C=CC(O3)C2C(=O)O)c1 (stereo not drawn)
    i	1	3	-0.6	1	-1.6	.	.	7

A portion of the library (hit frequency here may not be typical).
